Arbovirus anti – blocks arbovirus infection; inhibition, % at 10 µM; arbovirus infection cell-based antiviral screen; 200,000 compounds, 0.37% hits;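 active = inhibition from about 30%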;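 note: bluetongue infection of BSR cells; cell survival read as ATP light after 72 h; 0% = infected wells without compound and 100% = uninfected wells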
Mtb H37Rv – M. tuberculosis H37Rv growth inhibitors, H37Rv strain (AID 1626); M. tuberculosis H37Rv growth inhibition; higher % means a stronger effect; inhibition, % at 10 µM, or IC50 in µM where a hit was titrated; 220,000 compounds, 0.95% hits;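 active = confirmed in a dose series; inconclusive = inhibition above 80% but not taken into the dose series; inactive = below 80% or under 30% at every dose of the series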;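 note: bacteria incubated seven days before Alamar blue readout; 0% = bacteria only wells and 100% = bacteria with antibiotic wells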
RecA splice inh – blocks M. tuberculosis RecA intein splicing. cell-free RecA intein splicing, fluorescence. P9WHJ3. inhibition, %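 (about 9 µM by stock and volumes)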. 290,000 compounds, 0.75% hits; in the data active = inhibition above about 30%; inconclusive = no clear call, values can overlap the other calls;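 note: 0% = vehicle wells and 100% = reference inhibitor control wells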
Target sequence (P9WHJ3 whole entry, looked up, canonical isoform): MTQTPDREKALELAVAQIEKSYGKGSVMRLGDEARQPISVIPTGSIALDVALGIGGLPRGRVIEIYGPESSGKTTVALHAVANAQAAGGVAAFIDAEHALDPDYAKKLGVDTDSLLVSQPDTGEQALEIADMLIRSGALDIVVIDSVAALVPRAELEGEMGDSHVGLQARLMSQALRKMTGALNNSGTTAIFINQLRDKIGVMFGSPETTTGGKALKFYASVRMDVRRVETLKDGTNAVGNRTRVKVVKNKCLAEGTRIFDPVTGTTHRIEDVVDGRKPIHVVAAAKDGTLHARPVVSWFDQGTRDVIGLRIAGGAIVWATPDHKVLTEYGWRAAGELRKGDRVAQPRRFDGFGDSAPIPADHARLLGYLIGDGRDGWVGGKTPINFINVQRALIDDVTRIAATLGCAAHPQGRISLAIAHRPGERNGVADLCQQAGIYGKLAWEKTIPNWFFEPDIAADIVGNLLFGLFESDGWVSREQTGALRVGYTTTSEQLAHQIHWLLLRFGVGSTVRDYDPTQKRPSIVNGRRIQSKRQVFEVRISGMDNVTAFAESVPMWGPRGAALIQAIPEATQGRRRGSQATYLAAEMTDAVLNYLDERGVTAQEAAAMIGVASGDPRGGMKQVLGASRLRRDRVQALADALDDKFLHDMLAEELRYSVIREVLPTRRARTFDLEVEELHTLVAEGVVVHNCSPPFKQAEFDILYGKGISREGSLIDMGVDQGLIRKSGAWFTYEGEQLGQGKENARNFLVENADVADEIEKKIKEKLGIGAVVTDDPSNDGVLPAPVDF
Mtb betalactam – beta-lactam sensitization of Mtb H37Rv | 330,000 compounds, 0.27% hits | AID 434955 | M. tuberculosis H37Rv growth with meropenem, percent inhibition; hits of this screen are not shown here | inhibition, % at 25 µM;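 active = about 74% or more and at least 40 points above the plate without the antibiotic, then above 30% in a dose series; inconclusive = first-round hits that could not be retested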;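 note: growth measured after seven days incubation then overnight dye step; 0% = bacteria only wells and 100% = bacteria with antibiotic; twin plates without the antibiotic show which effects depend on it; some results filed as inactive read as strong as hits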
YopH PTP inh – YopH (Yersinia) phosphatase inhibition; fluorescence Ex485/Em525; inhibition, %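 (about 10 µM by stock and volumes)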; 140,000 compounds, 0.16% hits;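 active = inhibition of 50% or more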;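 note: controls were vehicle for no effect and minimum signal wells for full effect; inactives centre near -20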
Arbovirus anti repeat – further read-out of Arbovirus anti, marked with its call; inhibition, %; measured here: 10K subset replicate screen; many hits read low in the repeat;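 first of two repeat runs on a subset; 0% = infected and 100% = uninfected wells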
Numbers without * were called inactive; u = inconclusive; x = no result given. These rows are one share of the data. The share of hits here may be higher or lower than overall.

SMILES | Arbovirus anti | Mtb H37Rv | RecA splice inh | Mtb betalactam | YopH PTP inh | others
CCOC(=O)C(O)(CCC(O)(C(=O)OCC)C(=O)OCC)C(=O)OCC | 4 | -18% | -0.4 | 6 | -59
c1ccc(OCCn2c(-c3ccco3)nc3ccccc32)cc1 | 6 | 5% | 8.5 | 1 | -35
COc1ccc(/C=C(\C#N)C(=O)NCc2ccccc2)cc1 | x | x | -1.5 | 4 | x
Cn1c(SCC(=O)OCC(=O)c2ccccc2)nnc1-c1cccs1 | -4 | -3% | 0.2 | -3 | -7
CCOc1ccc(N2C(=O)c3ccccc3C2=O)cc1 | -1 | >100µM* | 0.8 | 93 | -10
Cc1ccc(NC(=O)COc2ccc(Br)cn2)cc1 | x | 3% | -1.5 | 2 | x
COc1ccccc1NC(=O)CCN1CCN(Cc2ccccc2)CC1 | -2 | 1% | -1.1 | 6 | -23
CCc1ncc(CN2CCC(C(=O)Nc3cccc(-c4cscn4)c3)CC2)cn1 | x | x | 1.7 | -5 | x
Cc1ccn2cc(CCNS(=O)(=O)c3ccc(F)c(C(F)(F)F)c3)nc2c1 | -1 | 5% | -2.0 | -4 | -35
CC(=O)c1sc(NS(=O)(=O)c2ccc(C)cc2)nc1C | 7 | -3% | -1.3 | -4 | x
COc1ccc(S(=O)(=O)N(CC(=O)N2CCCCCC2)c2ccccc2OC)cc1 | x | x | 6.3 | -3 | x
COc1ccc(N(C(=O)c2cccnc2)S(=O)(=O)c2ccc(F)cc2)cc1 | x | x | 7.3 | u | x
O=C1N=C(N2CCCCC2)S/C1=C\c1cn[nH]c1-c1ccccc1 | -9 | -5% | -2.5 | -6 | -17
CCCN1C(=O)/C(=C/c2ccccc2OCc2ccc(C(=O)O)cc2)NC1=S | 2 | -4% | 4.2 | -6 | x
O=C(Nc1ccsc1C(=O)NC1CCCCC1)c1ccccc1 | -16 | -5% | -1.7 | 6 | -2
CCN1CCN(c2ncnc3c2cnn3-c2ccc(Cl)cc2)CC1 | x | 6% | 4.1 | -7 | x
C/C(=N\Nc1cc(Cl)nc(C)n1)c1ccc(C)cc1 | x | 8% | 4.5 | u | -30
COc1cc(CC(=O)OCC(=O)Nc2ccc(Cl)c(S(=O)(=O)N(C)C)c2)cc(OC)c1OC | x | 6% | 2.4 | -5 | x
Cc1ccc(C(=O)CC(=O)COc2ccc(Cl)cc2)cc1 | 9 | 6.7µM* | 1.5 | 72 | -51
COc1ccc(-n2c(=O)c(CCC(=O)N(C)Cc3cccs3)nc3ccccc32)cc1 | x | x | -2.7 | 1 | x
O=[N+]([O-])c1ccc(N=Cc2sc3ccccc3c2O)cc1 | -14 | 2% | -0.5 | 0 | -14
COC(=O)c1c(NC(=O)C(=O)N2CCCC2)sc2c1CC(C)(C)OC2 | x | x | 0.9 | 99 | x
O=c1sc2ccccc2c(N2CCCCC2)c1[N+](=O)[O-] | 8 | 1% | -2.5 | 7 | x
O=[N+]([O-])c1ccc(-c2cn(-c3ccc(Cl)cc3)c(=S)[nH]2)cc1 | -5 | 2% | -0.9 | 5 | 6
CN(C)S(=O)(=O)c1cccc(COC(=O)Cc2c(F)cccc2Cl)c1 | x | x | 3.6 | -4 | x

Molecules shown so far with four or more nitrogen atoms (4):
SMILES | Arbovirus anti | Mtb H37Rv | RecA splice inh | Mtb betalactam | YopH PTP inh | others
CCc1ncc(CN2CCC(C(=O)Nc3cccc(-c4cscn4)c3)CC2)cn1 | x | x | 1.7 | -5 | x
O=C1N=C(N2CCCCC2)S/C1=C\c1cn[nH]c1-c1ccccc1 | -9 | -5% | -2.5 | -6 | -17
CCN1CCN(c2ncnc3c2cnn3-c2ccc(Cl)cc2)CC1 | x | 6% | 4.1 | -7 | x
C/C(=N\Nc1cc(Cl)nc(C)n1)c1ccc(C)cc1 | x | 8% | 4.5 | u | -30

Continuation.
SMILES | Arbovirus anti | Mtb H37Rv | RecA splice inh | Mtb betalactam | YopH PTP inh | others
N#Cc1nc(-c2cccc3ccccc23)oc1N1CCCCC1 | 3 | x | -2.4 | -7 | -12
COc1ccc(CNC(=O)COc2ccc(S(=O)(=O)N3CCOCC3)cc2)cc1 | x | x | -1.9 | -15 | x
N#Cc1ccsc1NC(=O)c1ccccn1 | -12 | -3% | x | 62 | -35
O=C1C2C3c4ccccc4C(c4ccccc43)[C@@H]2C(=O)N1c1cccnc1 (some centres not stated) | -1 | 1% | -1.4 | -3 | -20
O=C(c1ccccc1)N1CCN2C(=O)c3ccccc3C12c1ccc(Cl)cc1 (configuration not stated) | -22 | 3% | 7.3 | 4 | -13
CSc1nc2c(cnn2-c2ccccc2)c(=O)n1N | 1 | 0% | -1.1 | -2 | x
Cc1ccc(NC(=O)CSc2nnc(Cn3c(=O)sc4ccccc43)n2C)cc1Cl | -3 | x | -1.4 | 9 | -23 | Arbovirus anti repeat=-4
CCN(CC)S(=O)(=O)c1ccc(NS(=O)(=O)c2cccs2)cc1 | 6 | x | -3.4 | -1 | x
Cc1cc(C)nc(Sc2nc(Nc3ccccc3)nc(Sc3nc(C)cc(C)n3)n2)n1 | 20 | 2% | 0.8 | 0 | -11
COc1ccc(COC(=O)C2CCN(S(=O)(=O)c3ccc(C)cc3)CC2)cc1 | x | x | -3.2 | -4 | x
COc1ccc2c(c1)C(C)=CC(C)(C)N2C(=O)CSc1nnc(-c2ccc(C)cc2)o1 | -1 | 3% | 20 | 7 | 6
Cc1cc(C)nc(NC(=NCCc2c[nH]c3ccccc23)NC(=O)c2ccco2)n1 | 2 | 13% | 3.3 | 1 | -21
CCN(CC)C(=O)CSc1nc2sc3c(c2c(=O)n1-c1ccc(C)cc1)CC(C)(C)SC3 | 2 | -14% | -0.6 | 3 | -48
Fc1ccc2nc3c(nc2c1)CCCC3 | x | x | 2.2 | 0 | x
N#Cc1ccc(CSc2nnc(-c3cccnc3)n2-c2ccccc2)cc1 | 3 | -3% | -2.5 | -1 | -26
NS(=O)(=O)c1ccc(CCNS(=O)(=O)c2cccc3nsnc23)cc1 | x | x | -0.6 | 0 | x
CCCCc1cc(=O)oc2cc(OC(C)C(=O)NCCN3CCOCC3)c(Cl)cc12 (configuration not stated) | x | x | -0.5 | 6 | x
COc1ccc(CCN(C)C(=O)CNC(=O)c2ccccc2F)cc1OC | 13 | 0% | 1.4 | -5 | x
COc1ccc(OCC#CCn2ccnc2)cc1 | 9 | 2% | -1.4 | 2 | x
C=CCN1C(=O)/C(=C/c2cccs2)S/C1=N\S(=O)(=O)c1ccc(F)cc1 | -3 | 3% | 5.2 | 0 | -30
O=C(O)c1cccc(NC(=O)c2cc(-c3cccc(Cl)c3)nc3ccccc23)c1 | 0 | 6% | 5.5 | 0 | x
Cc1ccc(-n2nnnc2CNC(=O)c2ccc([N+](=O)[O-])o2)cc1C | x | x | -4.8 | -2 | x
CCOC(=O)CSC1=Nc2ccccc2C2=NC(CC(=O)NCc3cccs3)C(=O)N12 (configuration not stated) | 11 | -3% | 9.3 | -2 | -4
COc1ccc(CCNC(=O)c2ccc([N+](=O)[O-])cc2)cc1 | x | 2% | -0.3 | -1 | x
O=C1OC(Nc2nccs2)c2ccccc21 (configuration not stated) | x | 0% | -3.0 | 10 | -24
SMILES | Arbovirus anti | Mtb H37Rv | RecA splice inh | Mtb betalactam | YopH PTP inh | others
CC(CCc1ccccc1)NC(=O)COC(=O)c1cc(NS(=O)(=O)c2ccc(Cl)c([N+](=O)[O-])c2)ccc1O (configuration not stated) | -1 | -9% | 38* | -3 | -27
CCCNC(=O)COC(=O)c1ccc(-c2ccccc2)cc1 | -14 | -4% | 5.2 | -4 | x
CCN(CC)C(=O)CN(Cc1ccccc1)S(=O)(=O)c1ccc(F)cc1 | 5 | -5% | 2.3 | 4 | -30 | Arbovirus anti repeat=0
NC(=O)c1c(NC(=O)c2ccco2)sc2c1CCC2 | -5 | -3% | -1.4 | 3 | -7
O=C1S/C(=C\c2ccccc2)C(=O)N1CC(O)Cn1c2ccccc2c2ccccc21 (configuration not stated) | 5 | 3% | 2.7 | 4 | -25
Cc1nn(Cc2c(Cl)cccc2Cl)c(C)c1NC(=O)c1cn(-c2ccccc2)nc1-c1ccccc1 | -32 | x | 0.3 | 49 | -47
CCOC(=O)CCCNC(=O)c1cncc(Br)c1 | 11 | 3% | -2.0 | -7 | -18
COC(=O)N/N=C/c1ccc(-c2ccccc2Cl)o1 | x | -5% | 1.3 | -4 | x
Cc1ccc(/C=C(/NC(=O)c2ccccc2)C(=O)NC(Cc2c[nH]c3ccccc23)C(=O)O)cc1 (configuration not stated) | x | x | -0.4 | -2 | x
COc1ccc(CCNc2nc(-c3ccncc3)cs2)cc1OC | x | 0% | 2.1 | -5 | x
COCCCNC(=O)CCn1nc(-c2ccc(Cl)cc2)ccc1=O | x | x | 0.5 | -1 | x
NC(=O)c1ccsc1NC(=O)COC(=O)/C=C/c1ccccc1 | x | x | -0.2 | -1 | x
Cc1nc2sc(C(c3cccc(F)c3)N3CCOCC3)c(O)n2n1 (configuration not stated) | 5 | -2% | 0.2 | -1 | -29
COc1ccc(OC)c(NC(=O)C(=O)NCc2ccncc2)c1 | -5 | 5% | -0.2 | 3 | -49
CCOC(=O)c1[nH]c2ccccc2c1NC(=O)C(CC)CC | -6 | -2% | 1.6 | 3 | -35
CC1Cc2ccccc2N1C(=O)Cc1cccs1 (configuration not stated) | -4 | 5% | 5.6 | -13 | 6
CCCNC(=O)CN1C(=O)NC(CCSC)C1=O (configuration not stated) | x | -17% | -0.5 | 1 | x
CCN(CC)Cc1ccc(OC)c(Cl)c1 | x | -2% | -0.8 | -2 | x
COc1ccc(/C=C/C(=O)OCC(=O)c2c(C)[nH]c3ccccc23)cc1OC | -21 | 19% | -2.3 | 15 | -20
Cc1ccc(-n2c(SCC(=O)Nc3ccc4cn[nH]c4c3)nnc2-c2ccco2)cc1 | 4 | -17% | 4.1 | -10 | -12
COc1ccc(C2=NO[C@@H]3[C@@H]4C[C@@H]([C@H]5C(=O)N(c6ccc7c(c6)OCO7)C(=O)[C@@H]45)[C@H]23)cc1OC | -10 | 2% | 0.2 | -5 | -35
Cc1ccccc1NC(=S)N(Cc1ccccc1)Cc1cccnc1 | 12 | 3% | 0.8 | 8 | x
Cc1sc2ncnc(NCc3cccs3)c2c1C | -13 | -1% | 2.5 | 7 | 11
COc1ccc2cc(C#N)c(SCC(=O)N3CCCC3)nc2c1 | -6 | -6% | -3.5 | 35 | -19
O=C(c1cccnc1)N1CCN(S(=O)(=O)c2ccc(Cl)cc2)CC1 | -5 | -9% | -2.4 | -1 | -24
SMILES | Arbovirus anti | Mtb H37Rv | RecA splice inh | Mtb betalactam | YopH PTP inh | others
CCOc1ccccc1NC(=O)Nc1cnccn1 | 5 | -10% | 2.5 | 1 | x
CCc1ccc(NC(=O)C(=O)NCCN2CCN(C(=O)c3ccco3)CC2)cc1 | 4 | 4% | 0.9 | -7 | -34
CCn1c(Cc2ccccc2)n[nH]c1=S | x | 3% | -0.5 | -3 | x
CCN(Cc1ccccc1)S(=O)(=O)c1ccc2c(c1)NC(=O)CS2 | x | x | -2.3 | 2 | x
Cc1cccc(N2CCN(C(c3ccccc3)c3nnnn3CC3CCCO3)CC2)c1C (configuration not stated) | -28 | 7% | 11 | 0 | -34
CCCCN(C(=O)C(C)Oc1ccc(Br)cc1)c1c(N)n(Cc2ccccc2)c(=O)[nH]c1=O (configuration not stated) | x | x | 1.2 | -9 | x
CCOc1ccc2c(c1)-c1c(ssc1=S)C(C)(C)N2 | -7 | 6% | 51* | 3 | -1
CCN(CC)CCNC(=S)NC(=O)c1cn(-c2ccccc2)nc1-c1ccc(OC)cc1 | -19 | 14% | 9.6 | 3 | x
COc1ccc(C(=O)NCCn2cc(SCC(=O)NCC3CCCO3)c3ccccc32)cc1OC (configuration not stated) | x | x | -2.4 | 6 | x
CCc1c(-c2n[nH]c(=S)n2Cc2ccccc2)csc1C | 5 | 6% | 0.8 | -3 | -29
O=C(O)COc1ccc(C(=O)Cc2ccc3c(c2)OCCCO3)c(O)c1 | 0 | -8% | -2.8 | 0 | -56
Cc1scc(C(=O)NNC(=O)CCC(=O)O)c1C | -1 | -11% | -2.2 | 1 | x
CCC(=O)Nc1c(-c2ccc(C)cc2)nc2ccc(C)cn12 | x | x | -2.1 | -3 | x
CCc1ccccc1NC(=S)N(Cc1cccs1)C1CCCC1 | 4 | -1% | 4.5 | -8 | x
Cc1ccc(C)c(NC(=O)CSc2nc3ccc(N4C(=O)c5ccccc5C4=O)cc3s2)c1 | -5 | 3% | -0.6 | 57 | -13
CCOc1cc(N2CCOCC2)c(OCC)cc1NC(=O)CN1C(=O)NC(Cc2ccccc2)C1=O (configuration not stated) | 1 | -3% | -3.3 | 3 | -47
